High-throughput results as filed in PubChem.
MgrA DNA FP: S. aureus MgrA activity modulators, primary screen, biochemical, S. aureus Newman, fluorescence polarization; MgrA-DNA binding; inhibition, %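 (about 10 µg/mL by stock and volumes)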; actives 0.13% (n = 84,000); AID 602314, 2012;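 active = above 50% in either of two replicates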;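 note: 0% = protein plus DNA without compound and 100% = DNA alone without protein; higher means less MgrA bound to DNA so lower polarization; one replicate is shown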
Sa helicase inh: inhibitors of S. aureus replicative helicase, primary screen, biochemical, fluorescence unwinding readout; replicative DNA helicase (DnaC/DnaB), Staphylococcus aureus; purified S. aureus helicase, fluorescence unwinding assay; about half of the hits fall short of the stated cut; inhibition, %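 (tested at about 80 µM)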; actives 0.05% (n = 120,000); AID 485395, 2010;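 active = both duplicates at 50% or more, or one of them with a favoured structure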;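 note: 0% = mean of negative control wells and 100% = mean of positive control wells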
* marks the source's active call; other numbers are inactive results; . = not tested or not shown. The list is partial. The share of hits here may be higher or lower than overall.

SMILES	MgrA DNA FP	Sa helicase inh
OC(CNCCNc1ncccc1C(F)(F)F)Cn1ccc2ccccc21 (centres undefined)	.	-39.0
CC(=O)N1CCN(S(=O)(=O)c2ccc(C)cc2)C1C(C)C (centres undefined)	1.5	-9.0
COc1ccc(/C=N/NC(=O)c2nnn(-c3nonc3N)c2C)cc1COc1ccc(F)cc1F	.	-5.0
Cn1c(=O)c2cc(S(=O)(=O)NC(Cc3ccccc3)C(=O)NCc3ccco3)ccc2n(C)c1=O (centres undefined)	.	-22.0
Fc1ccc(C=Nc2cc(Cl)cc(Cl)c2)cc1F	-0.8	30.0
CC(C)NC(=O)C(Cc1ccccc1)N1C(=O)c2ccccc2C1=O (centres undefined)	-6.4	20.0
N#C/C(=C\NC1CCN(Cc2ccccc2)CC1)S(=O)(=O)c1ccccn1	0.6	.
NC(=O)C1CCN(Cc2nc3cc(C(F)(F)F)ccc3c(=O)[nH]2)CC1	.	2.0
CC(C)(C)NC(=O)c1cccc(NC(=O)c2ccco2)c1	-0.6	7.0
Cc1cc(I)cc(C)c1NC(=O)CSc1nnc(Cc2ccccc2)o1	1.6	-16.0
NNC(=O)CC12CC3CC(CC(C3)C1)C2	-1.6	.
N#Cc1c(NC(=O)c2nn3c(c2Br)NC(c2ccco2)CC3C(F)(F)F)sc2c1CCCC2 (centres undefined)	1.3	.
Brc1ccc2c3c(cccc13)CC2	-0.8	.
CC(=O)N1CC(=O)Nc2ccccc21	.	-6.0
CC(C)NC(=O)NC(=O)CN1CCCC1	.	1.0
O=C(NC1CCCCC1)N(Cc1ccccc1)Cc1ccco1	.	-18.0
COC(=O)c1ccc(COC(=O)c2cc(S(=O)(=O)N(C)C)ccc2N2CCCC2)o1	.	-18.0
O=C(Nc1ccccc1)C(/C=N/O)C(=O)Nc1ccccc1	-1.2	.
CCC(NS(=O)(=O)c1ccc(OC)cc1)C(=O)NC1CCCCC1C (centres undefined)	-3.9	7.0
O=C(CCN1C(=O)C2CC=CCC2C1=O)N1CCN(C(c2ccccc2)c2ccccc2)CC1 (centres undefined)	.	10.0
c1ccc(-c2ccc(SCc3cccnc3)nn2)nc1	.	1.0
CCCCCCCCCCCCCCC[C@@H](O)[C@H](CO)NC(C)=O	2.1	.
Cc1[nH]n(-c2ccccc2)c(=O)c1Sc1ccc(Cl)cc1	4.2	14.0
O=C(NC1CCCC1)c1coc2nc3ccccc3nc12	.	-4.0
O=C1CSC(=O)N1Cc1ccc(CN2C(=O)CSC2=O)cc1	-2.5	12.0
Cc1ccc(S(=O)(=O)NC(CC(=O)O)c2ccccc2)cc1 (centres undefined)	-5.5	15.0
CCN(CC)c1nc2c(s1)C(=O)NCC(C)(C)C2	.	15.0
Cc1cc(=O)[nH]c(N2C(=O)c3ccccc3C2=O)n1	.	8.0
N#C/C(=C/c1ccc(O)c(O)c1)C(=O)OC/C=C/c1ccccc1	1.9	.
COc1cc2c(cc1NC(=O)C(C)Sc1nncn1C)oc1ccccc12 (centres undefined)	.	-2.0
COC(=O)C(C)Sc1nc2ccccc2c(=O)n1-c1ccccc1 (centres undefined)	.	-18.0
CC(=O)N(c1ccccc1)c1nc(COC(=O)c2cc(C)oc2C)cs1	.	-1.0
COc1ccc(NC(=O)/C=C/C(=O)O)c(OC)c1	-6.1	.
CC(C)C/C(O)=C/c1nc2cc(Cl)ccc2oc1=O	2.6	4.0
Cc1ccc(Sc2ncccc2NC(=O)c2ccco2)cc1	-4.0	.
CC1CCCCC1NC(=O)C1CCN(Cc2cnn(-c3ccccc3)c2-n2cccc2)CC1 (centres undefined)	0.3	2.0
COC(=O)Cn1c(O)c(N=NC(=O)C2C(=O)NCC2c2ccccc2)c2ccccc21 (centres undefined)	.	13.0
COc1cc(COC(=O)c2ccc3c(c2)S(=O)(=O)N=C2CCCCCN23)cc(OC)c1OC	.	-15.0
Cc1cccc(N=C2C(=O)N(c3ccccc3)c3ccccc32)c1	0.5	.
CCc1cc2c(=O)n(Cc3ccco3)c(SC(C)C(=O)N3CCc4ccccc43)nc2s1 (centres undefined)	.	-8.0

Ordered by the number under Sa helicase inh (low to high): four from the list above
| SMILES | Sa helicase inh |
| --- | --- |
| COc1cc(COC(=O)c2ccc3c(c2)S(=O)(=O)N=C2CCCCCN23)cc(OC)c1OC | -15.0 |
| CC(=O)N1CC(=O)Nc2ccccc21 | -6.0 |
| Cc1[nH]n(-c2ccccc2)c(=O)c1Sc1ccc(Cl)cc1 | 14.0 |
| Cc1ccc(S(=O)(=O)NC(CC(=O)O)c2ccccc2)cc1 (centres undefined) | 15.0 |

(more compounds)
SMILES	MgrA DNA FP	Sa helicase inh
CNCc1ccc(Cl)c(Cl)c1	.	-5.0
Cc1ccc2c(c1)-c1onc(C(=O)N(CC(C)C)CC(C)C)c1CO2	-0.1	2.0
Cc1cc(C)n(NC(=S)NC2CCCC2)c(=O)c1C#N	-1.6	.
NC(=O)c1ccsc1NC(=O)CSc1ccc(S(=O)(=O)N2CCCCC2)cn1	.	-1.0
CSc1ncc(-c2ccc(Br)cc2)[nH]1	-2.4	10.0
O=C(c1cc2ccccc2oc1=O)N1CCSC1c1ccccc1 (centres undefined)	-1.2	-2.0
CC(C)CCNC(=O)Nc1cn(C)c(=O)c2ccccc12	.	-19.0
O=C(COC(=O)c1ccncc1)Nc1cccc2ccccc12	-0.8	-17.0
CCN1CCCC1CNC(=O)c1ccc2c(c1)sc1nc(-c3ccc(C)cc3)cn12 (centres undefined)	-2.9	2.0
CC(=O)Nc1cccc(Oc2nnnn2-c2ccccc2)c1	.	0.0
S=c1[nH]nc(-c2cccnc2)n1Cc1ccccc1	.	-12.0
CCCCc1c(C)nc(N2CCCC2)[nH]c1=O	-0.9	.
O=C(CSCc1cccc2ccccc12)NNC(=S)Nc1ccc(OC(F)(F)F)cc1	2.0	.
CCOC(=O)c1c(C(=O)OCC)c(C)n(N2C(=O)CSC2=S)c1C	-2.0	18.0
O=C(Nc1cccc(C2=NCCN2)c1)Nc1cccc(C2=NCCN2)c1	19.2	6.0
COc1ccccc1N(CCCN1C(=O)c2cccc3cccc(c23)C1=O)C(=O)c1cc(OC)c(OC)c(OC)c1	-2.4	.
CCC(=O)N/C(N)=N\c1nc(C)c2cc(OC)ccc2n1	.	4.0
c1ccc(OCCNc2nnnn2-c2ccccc2)cc1	.	-26.0
O=C(CSc1nc2ccccc2c(=O)n1CCc1ccccc1)c1ccc(Cl)cc1	1.1	-3.0
CC1=C(C(=O)OC2CCCC2C)C(c2ccccc2OCc2ccccc2)NC(=O)N1 (centres undefined)	-1.7	.
CCOC(=O)C1=C(c2ccccc2)OC(N)=C(C#N)C1C1CCCCC1 (centres undefined)	.	-23.0
NC(=O)COC(=O)COc1ccc(C(=O)c2ccccc2)cc1	.	-10.0
CCOC(=O)c1c(C)n(-c2ccc(C)cc2)c2ccc(OCC(O)CN3CCN(C)CC3)cc12 (centres undefined)	0.4	16.0
CCOc1ccc(-c2nc(CSCC(=O)N3CCOCC3)c(C)o2)cc1	-4.0	6.0
O=C1c2cccnc2C(=O)N1Cc1ccc(S(=O)(=O)N2CCCCC2)cc1	-2.8	-5.0
Cc1ccc(N(Cc2ccco2)C(=O)c2cccnc2)cc1	0.9	1.0
Cc1cccc2c1-c1sc(C(=O)NCCN(C)C3CCCCC3)cc1CO2	-0.7	14.0
O=C(OCC(=O)c1c[nH]c2ccccc12)c1ccc2c(=O)n3c(nc2c1)CCCCC3	.	-13.0
COc1ccc(-n2nc3c(c2NC(=O)c2ccc(S(=O)(=O)N4CCCC4)cc2)CSC3)cc1	-0.5	.
O=c1[nH]c(=O)n(-c2ccccc2)c(O)c1C=Nc1ccc(S(=O)(=O)N2CCCCC2)cc1	-0.1	-4.0
Cn1c(SCC(=O)Nc2ccccc2Oc2ccccc2)nc2ccccc2c1=O	.	18.0
O=C(OCc1csc(-c2ccccc2)n1)C1CC(=O)N(Cc2ccco2)C1 (centres undefined)	.	-7.0
N#Cc1ccc(-c2cccs2)nc1SCCOc1ccccc1	0.0	10.0
Cc1ccc([C@H]2[C@@H](C#N)[C@H](C#N)N3CCCN23)cc1	0.0	10.0
O=C(COC(=O)c1ccccc1)c1cccc(C(F)(F)F)c1	-1.7	-17.0
Cc1cccc(N(C)c2nc3ccccc3n3cnnc23)c1	.	14.0
Cc1cc(/C=C2\SC(=Nc3ccc(N4CCOCC4)cc3)N(C)C2=O)c(C)n1-c1cccnc1	.	2.0
CSc1nc2c([nH]c3ccccc32)c(=O)n1-c1ccccc1	.	-17.0
CS(=O)(=O)c1csc(C(=O)NCc2cccnc2)c1Cl	-0.8	.
Cc1cc(C)cc(-n2ccnc2SCC(=O)NC2CCCCC2)c1	.	9.0
CSC1=NC(C)=C(C(=O)Nc2ccccc2)C2(CCCCC2)C1C(N)=O (centres undefined)	-0.8	15.0
COc1ccc(C2NS(=O)(=O)N=C3CCCN32)c(OC)c1 (centres undefined)	.	0.0
CC(NS(=O)(=O)c1ccc(Cl)s1)C1CC2CCC1C2 (centres undefined)	.	-16.0
O=C(NCc1ccco1)c1ccc2c(c1)N(Cc1ccccc1)CCS2	.	17.0
O=C(Cc1ccc(NC(=O)N2CCCCc3ccccc32)cc1)N1CCCCC1	.	20.0
O=C(CSc1ncnc2ccccc12)N(Cc1ccccc1)Cc1ccccc1	-1.1	2.0
CC(C)N1CCC(=O)NC1=O	.	10.0
CCOc1ccccc1C(=O)NC1CCSC1=O (centres undefined)	0.5	-1.0
COCc1cc(=O)[nH]c(SCC(=O)c2ccccc2)n1	3.5	.
O=C(NCc1cccs1)c1ccccc1N1CCOCC1	-0.6	.
c1coc(CNC2=NCCC2)c1	.	-8.0
Cn1cccc1C(=O)NC(=O)CSc1cccc[n+]1[O-]	.	-10.0
CC1CCCN(C(=O)c2ccc3nc[nH]c3c2)C1 (centres undefined)	.	3.0
CC(=O)Oc1cccc(NC(=O)c2ccc3c(c2)C(=O)N(CC(C)C)C3=O)c1	.	12.0
O=C1CC(c2ccccc2)CC2=C1CN(C1CCCCC1)CN2 (centres undefined)	.	-22.0
CC(C)S(=O)(=O)c1csc(C(N)=O)c1Cl	-0.6	.
N#Cc1nc2c(-c3nc4ccccc4s3)c(N)n(CC3CCCO3)c2nc1C#N (centres undefined)	-4.0	7.0
COC(=O)CSc1ccc2nnc(-c3ccc(OC)cc3)n2n1	-1.2	19.0
NC(=O)COC(=O)Cc1ccc(Cl)c(Cl)c1	3.5	-33.0
O=C(Nc1cc2cc([N+](=O)[O-])ccc2oc1=O)c1c(F)cccc1F	0.6	.

The results go on:
SMILES	MgrA DNA FP	Sa helicase inh
C=CCn1c(SCC)nnc1-c1cccc(C)c1	.	-1.0
Cn1c(/C(C#N)=C(\O)c2ccccc2)nc2ccccc21	.	22.0
COc1cccc2c1Oc1ncccc1N(c1ccc(C(=O)NCc3ccc(C)o3)s1)C2	.	16.0
CCn1c(C)nc2cc(-c3nnc(Nc4ccc(Cl)cc4)s3)ccc21	.	10.0
COc1ccccc1OCc1ccc(C(=O)OCC2CCCO2)o1 (centres undefined)	.	18.0
O=CNC1CCCc2c1[nH]c1ccc(F)cc21 (centres undefined)	3.1	17.0
O=c1nc(-c2ccc(Cl)cc2)c2ccccc2[nH]1	.	-9.0
Brc1ccc(Cn2nnc(-c3ccc4c(c3)OCO4)n2)cc1	.	-3.0
C=CCSc1nnc(NC(=O)C2C(C=C(Cl)Cl)C2(C)C)s1 (centres undefined)	.	-15.0
O=C(COc1ccc(Br)cc1)Nc1cccc(-c2nc3ccccc3o2)c1	0.0	6.0
Cc1c(CN2CCN(c3ccccn3)CC2)sc2ccccc12	0.9	.
CC(=O)Oc1c(O)ccc2c(C)cc(=O)oc12	0.1	3.0
O=C(O)c1ccc(-c2ccccc2)[nH]1	-4.0	-2.0
Cc1ccc(S(=O)(=O)NC(C(=O)NC2CCCCC2)C(C)C)cc1 (centres undefined)	0.5	-18.0
N#Cc1c(Cl)cccc1Oc1ccc(Cl)cc1	-2.1	.
Cc1c(C(=O)NCCc2ccccc2)oc2ccc(S(=O)(=O)N3CCCC3)cc12	.	32.0
CC(C)(C)c1ccccc1OCC(O)CN1CCN(Cc2ccc3c(c2)OCO3)CC1 (centres undefined)	.	3.0
CCCOc1ccc(-c2nc(N)n[nH]2)cc1	.	9.0
O=C(NCCOc1ccccc1)C1CCCCC1	0.3	16.0
Cc1ccc(C(=O)Nc2ccc(S(=O)(=O)Nc3nc(C)cc(C)n3)cc2)cc1	1.7	.
Cc1cc(C)c2c(C)cc(=O)n(C)c2n1	.	-1.0
Cn1cc(C(=O)Nc2ccc(F)c(F)c2F)c(N)n1	-2.6	.
O=C(NCCO)NC12CC3CC(CC(C3)C1)C2	.	-43.0
CCN(CC)/C(C)=N/C(=O)Nc1ccccc1	1.9	16.0
N#CC1=C(SCc2ccccc2)SC(c2ccccc2O)NC1=O (centres undefined)	47.5	7.0
O=Cc1c(O)c2ccccc2c2ccccc12	.	-2.0
C=C/C(=C\C=C/C)N1C(=O)SC(Nc2ccc(C(=O)O)cc2)C1=O (centres undefined)	.	-2.0
O=c1oc2ccc(Br)cc2cc1-c1nnc(-c2ccccc2)o1	.	9.0
CC1(C)CC(N2C(=O)OC(C)(C3CC4C=CC3C4)C2(C)O)CC(C)(C)N1 (centres undefined)	-0.6	16.0
